Sfp PPTase inh: Sfp phosphopantetheinyl transferase inhibition. Q9F4F7. Biochemical Sfp PPTase activity, qHTS. Potency, µM, for the others: max response, negative = inhibition, hits mostly inhibitors. hit rate 3.5% among 310,000. AID 1490; active = well fitted inhibition curve with a large enough effect; inconclusive = small, poorly fitted or top-dose-only effect, or another doubt; inactive = no such curve, though single readings can be large or run the other way;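 also: the enzyme is Sfp with the accession as filed and its product quenches rhodamine fluorescence; potency is read from the fitted curve at half-maximal effect; 0% = enzyme reaction without inhibitor and -100% = no enzyme wells; top concentration of the series not given in the record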
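Sfp 15 nM + cpd, 15 min RT; start w/ rhodamine-CoA 5 uM, BHQ-2-YbbR 12.5 uM (final); 50 mM Hepes pH 7.6, 10 mM MgCl2, 0.01% NP-40, 0.01% BSA; read 525/598 nm at 0 and 30 min.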
PINK1 expr mod: changes PINK1 expression | PINK1 immunofluorescence, high-content cytometry, 24 h | Potency, µM (titrated, usually from 76.6 µM), inactives show top-dose activation (PINK1 increase), hits mostly activators | AID 624263 | hit rate 0.2% among 410,000; active = well fitted activation curve with a large enough effect; inconclusive = small, poorly fitted or top-dose-only effect; inactive = flat fitted curve, though single readings scatter; cell line not stated here;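 also: potency is read from the fitted curve at half-maximal effect; % of control where 0% means no effect; nearly all actives have a fitted effect of over 65% in size; a mitochondrial uncoupler was the plate control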
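Cells are seeded, rested 12 hours, then given compound at five concentrations or DMSO for 24 hours. After fixation, blocking and antibody staining, PINK1 amount and mitochondrial localization are scored; CCCP serves as control.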
Six1-Eya2 inh: blocks human Six1 binding to Eya2; Q15475+O00167; AlphaScreen GST-Six1/His-Eya2 binding, biochemical; stronger effect = lower value; control for the full effect not named in the record; activity change, % (test concentration not listed); hit rate 0.56% among 360,000; in the data active = activity change below about -65%; inconclusive = about -30% to -65%; inactive = above about -30%; also: % is scaled to controls: 0 for no effect and ±100 for the full control effect; compound concentration not given in the record
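Compounds are tested against tagged Six1 and Eya2 proteins bridged by glutathione donor and nickel acceptor beads; after a one-hour incubation at 37 °C without light, AlphaScreen emission is recorded.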
D2 PAM: human D2 receptor positive allosteric modulation; P14416; DiscoveRx D2 beta-arrestin cells, luminescence, 90 min; 100% = 57 uM dopamine signal; potentiation, % (no concentration beside the values); hit rate 0.23% among 360,000; AID 624464; active = potentiation of 50% or more; inconclusive = 30% to 50%; inactive = 30% or less;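 also: compound concentration not given in the record; tested on top of an EC20 dose of dopamine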
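PathHunter D2 cells, attached overnight at 37 deg C, received compound in DMSO plus dopamine at EC20 (50 nM final) for 90 min at 37 deg C. Beta-arrestin recruitment was read as luminescence after 1 h with detection reagent at ambient temperature.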
CtBP-E1A inh: CtBP/E1A binding inhibition; hit rate 0.49% among 340,000; AlphaScreen GST-E1A/His-CtBP binding, 1536-well; stronger effect = lower value; control for the full effect not named in the record; activity change, % (concentration not given with the values); in the data active means activity change below about -65%; inconclusive means about -30% to -65%; inactive means above about -30%; also: % is scaled to controls: 0 for no effect and ±100 for the full control effect
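Steps: dispense buffer (Tris pH 8.0, NaCl 300 mM, TCEP 1 mM, BSA, Tween 20); add 5X protein mix (GST-E1A, His-CtBP, 125 nM each); pin 23 nL compound; 2 h at 37 °C, dark; add 5X beads (50 ug/mL); 1 h; read.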
D2 agonist: human D2 receptor agonism in beta-arrestin assay; P14416; DiscoveRx PathHunter D2 beta-arrestin, luminescence, 90 min; 100% = 57 uM dopamine signal; activation, % (test concentration not listed); hit rate 0.084% among 360,000; AID 624465; in the data active = activation above about 40%; inconclusive = about 15% to 40%; inactive = below about 15%; also: compound concentration not given in the record; the text of the record calls up to 30% inactive
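Agonist mode: compounds alone added to overnight-plated D2 PathHunter cells for 90 min at 37 C, with 57 uM final dopamine (EC100) defining full response. Beta-arrestin recruitment detected by chemiluminescent reagent, read after 1 h at ambient temperature.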
TRPV1 potentiator: enhances activation of the human vanilloid receptor TRPV1; potentiation, % at 8.33 µM; Q8NER1; TRPV1-expressing cells, Fluo-8 calcium influx, capsaicin EC20 potentiation; host cell line not named in the record; control for the full effect not named in the record; hit rate 0.02% among 320,000; AID 540277; active means potentiation above 80%; inconclusive means 30% to 80%; inactive means below 30%; also: 0% is about no effect
Target sequence (Q8NER1 whole entry, looked up): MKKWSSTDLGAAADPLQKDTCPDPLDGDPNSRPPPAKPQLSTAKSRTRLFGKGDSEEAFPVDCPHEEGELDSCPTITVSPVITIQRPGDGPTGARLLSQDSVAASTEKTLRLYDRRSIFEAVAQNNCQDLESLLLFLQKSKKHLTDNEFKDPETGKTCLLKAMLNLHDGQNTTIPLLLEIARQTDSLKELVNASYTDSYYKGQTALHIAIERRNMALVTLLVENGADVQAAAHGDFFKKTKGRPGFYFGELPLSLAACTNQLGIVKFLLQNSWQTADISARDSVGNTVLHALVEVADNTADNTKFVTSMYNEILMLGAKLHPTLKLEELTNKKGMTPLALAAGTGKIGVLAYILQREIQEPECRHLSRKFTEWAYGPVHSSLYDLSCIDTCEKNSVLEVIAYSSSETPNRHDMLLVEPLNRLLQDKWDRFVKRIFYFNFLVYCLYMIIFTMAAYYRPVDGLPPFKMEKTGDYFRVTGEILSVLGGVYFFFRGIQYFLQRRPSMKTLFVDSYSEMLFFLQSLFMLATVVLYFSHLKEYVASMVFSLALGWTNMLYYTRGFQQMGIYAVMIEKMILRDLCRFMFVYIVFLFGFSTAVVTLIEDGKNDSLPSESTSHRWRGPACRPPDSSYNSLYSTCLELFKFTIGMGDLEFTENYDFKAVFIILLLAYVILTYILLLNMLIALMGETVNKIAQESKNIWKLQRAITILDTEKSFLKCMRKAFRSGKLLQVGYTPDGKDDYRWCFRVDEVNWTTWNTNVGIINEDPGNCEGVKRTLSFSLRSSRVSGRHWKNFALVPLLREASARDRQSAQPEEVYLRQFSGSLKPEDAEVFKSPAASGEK
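TRPV1-expressing cells were cultured overnight at 35.5C and loaded with Fluo-8 calcium dye for 40 to 90 min at room temperature. After a 10 s baseline, compound was added and calcium influx was read kinetically for 3 min (ex 480/em 520 nm).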
The depositor's hits bear a star; ? = inconclusive; . = not tested or not shown; [ ] = remark or other dose.

Preview, 2 compounds:
entry	Structure	TRPV1 potentiator	D2 agonist	CtBP-E1A inh	Six1-Eya2 inh	PINK1 expr mod	Sfp PPTase inh	D2 PAM
1	CCCc1nnc(SCC(=O)O)n1/N=C/c1ccc2c(c1)OCO2	1	-0.2	7	0	0.4%[38.3 µM]	-11%	-17
2	Cc1cc(-c2ccccc2)nc(N2CCC(C(=O)NC34CC5CC(CC(C5)C3)C4)CC2)n1	1	-2.6	12	2	4.2%	-26%	-1

The listing, repeating the preview:
entry	Structure	TRPV1 potentiator	D2 agonist	CtBP-E1A inh	Six1-Eya2 inh	PINK1 expr mod	Sfp PPTase inh	D2 PAM
1	CCCc1nnc(SCC(=O)O)n1/N=C/c1ccc2c(c1)OCO2	1	-0.2	7	0	0.4%[38.3 µM]	-11%	-17
2	Cc1cc(-c2ccccc2)nc(N2CCC(C(=O)NC34CC5CC(CC(C5)C3)C4)CC2)n1	1	-2.6	12	2	4.2%	-26%	-1
3	Cc1ccc(S(=O)(=O)N2CCC(C(=O)NC3CC(C)(C)NC(C)(C)C3)CC2)cc1	1	-2.7	0	-6	-0.7%	12%	-7
4	CCOc1ccc(NC(=S)N(CCCN2CCCC2)Cc2cccn2Cc2ccc(Cl)cc2)cc1	16	-0.3	-10	-13	2.3%	-14%	-12
5	Cn1c(COc2ccc(Cl)cc2)nnc1SCC(=O)NC1CCCC1	-1	-2.1	0	7	2.7%	12%	-5
6	Fc1ccc2[nH]c3c(Cl)ncnc3c2c1	0	-1.1	-2	-5	0.8%	16%	-5
7	COC(=O)c1c(C)oc(C)c1S(=O)(=O)NCc1ccc(OC)cc1	-15	-4.5	.	1	0.9%	7%	-19
8	CCOC(=O)c1ccc(NC(=O)Nc2ccn(C)n2)cc1	11	-1.7	-1	-3	1.0%[38.3 µM]	16%	-5
9	CC#CCN(CC#CC)S(=O)(=O)c1ccc(S(=O)(=O)N2CCOCC2)cc1	-21	2.4	1	-1	-0.5%[38.3 µM]	6%	-7
10	COc1ccccc1CNC(=O)N1CCN(c2ccccc2Cl)CC1	-14	-0.7	6	-5	-1.2%	-5%	-4
11	COCCSc1nnc(NC(=O)c2cc(OC)c(OC)cc2[N+](=O)[O-])s1	12	-0.2	.	16	0.8%	20%	-19
12	O=C(COC(=O)CCc1nc2ccccc2s1)Nc1nc(-c2ccccc2)cs1	26	-1.9	-12	-1	0.0%	16%	-3
13	Cn1cc(CNC(=O)C2CCCCC2)cn1	1	-2.0	15	8	0.9%[38.3 µM]	12%	-5
14	CCOc1cc(C(=O)NCC(C)CN(C)C)cc(OCC)c1OCC (centres undefined)	13	-4.0	-23	0	-1.8%[38.3 µM]	5%	-13
15	CC1(C(=O)Nc2cccc3ccccc23)CCN1C(=O)C1(c2ccccc2)CCCC1 (centres undefined)	.	-6.2	0	-1	3.0%	.	-8
16	CCOC(=O)c1nn(-c2ccc3ccccc3c2)cc1O	-2	1.4	-1	-3	3.9%	1%	-3
17	CC(=O)Nc1ccc(Nc2ncnc(N)c2[N+](=O)[O-])cc1	6	2.6	11	2	0.5%	17%	15
18	CC(Sc1ccccc1)C(=O)N1CCN(S(=O)(=O)c2ccccc2C(F)(F)F)CC1 (centres undefined)	0	2.8	4	-1	-0.5%	14%	19
19	COC(=O)c1cn(C(=O)c2cc(OC)cc(OC)c2)c2ccccc12	2	2.7	5	15	1.1%	1%	-5
20	O=C(N/N=C\c1cccnc1)c1ccc(Cl)cc1Cl	-1	-3.5	-3	-2	5.7%	11%	-6
21	CCc1nnc(NC(=O)CSc2nnc(Cc3ccccc3)n2-c2ccccc2)s1	-10	-2.6	-12	-3	-0.8%	-11%	-4
22	Cc1ccccc1CC(=O)NCCN1CCOCC1	1	2.8	-1	0	-0.4%	3%	-4
23	Cc1cccc(CCNC(=O)C2CCN(S(=O)(=O)c3c(C)nn(C)c3C)CC2)c1	17	-1.7	7	5	0.6%	20%	9
24	CN(C)CCC1Sc2ccccc2Oc2ccccc21 (centres undefined)	8	-2.1	-5	-8	0.9%	-30%	-30
25	O=C(O)c1cnc(-c2ccccc2)nc1Sc1ccccc1	-4	-1.0	-8	0	-2.0%	14%	-8

Later entries.
entry	Structure	TRPV1 potentiator	D2 agonist	CtBP-E1A inh	Six1-Eya2 inh	PINK1 expr mod	Sfp PPTase inh	D2 PAM
26	CN(C)c1ccc(C=C2SC(=S)NC2=O)cc1	.	-5.9	-13	-25	2.5%	.	-5
27	Cc1ccc(S(=O)(=O)N(C)C[C@H]2OCCCC[C@@H](C)Oc3ccc(NC(=O)Cc4ccccc4)cc3C(=O)N([C@H](C)CO)C[C@@H]2C)cc1	.	-4.5	6	-4	3.0%	.	-2
28	Cc1ccc(C(=O)N/N=C\c2ccc(OC(=O)c3cccc(F)c3)cc2)cn1	-5	0.8	-1	1	6.6%	14%	-2
29	COc1ccc(C(C(=O)NC2CCCC2)N(Cc2ccccc2)C(=O)c2snc(C(N)=O)c2N)cc1OC (centres undefined)	4	2.6	-4	0	0.7%	10%	-3
30	CC(Sc1ccc(S(=O)(=O)N2CCOCC2)cn1)C(=O)Nc1ccc(Cl)cc1Cl (centres undefined)	6	-1.2	.	-5	4.2%	.	5
31	CCOC(=O)N1CCC(N(CCN(C)C)C(=S)Nc2ccc(Oc3ccccc3)cc2)CC1	2	1.1	-28	-16	-3.4%	-28%	2
32	CCN(c1nc(C)cc(OC)n1)S(=O)(=O)c1ccccc1	0	-6.7	8	4	-2.5%	15%	-13
33	COC(=O)c1ccc(NC(=O)CCc2nnc3ccc(N4CCC5(CC4)OCCO5)nn23)cc1	5	-7.2	-1	1	0.6%	15%	-4
34	CCN(C(=O)COC(=O)c1cc([N+](=O)[O-])ccc1N1CCOCC1)C1CCCCC1	-20	2.6	0	-1	-3.4%	.	12
35	CN(C)S(=O)(=O)n1cnc([C@@H]2[C@@H]3C(=O)OC[C@@H]3C[C@]23N=CN(Cc2ccccc2)C3=O)c1	17	0.6	7	-1	-0.1%	.	-5
36	CCOC(=O)CC1C(=O)NC2CCCCC2N1C(=O)Nc1ccc(Cl)cc1 (centres undefined)	5	-0.3	24	10	1.7%	9%	-16
37	COc1ccc(Cl)cc1-n1c(=S)sc2c(=O)[nH]c(SCC(=O)C(C)(C)C)nc21	9	6.0	.	-3	0.6%	-5%	6
38	CC(C)CNC(=O)CSc1nnc(-c2cccc(S(=O)(=O)N3CCCCC3)c2)o1	8	-0.8	-2	3	-1.9%	6%	7
39	Cc1cccc(CCNC(=O)COc2cc(=O)n(C)c3ccccc23)c1	13	-1.9	4	-3	0.2%	4%	1
40	N#Cc1c(NC(=O)C2CC(Cl)=CCC2C(=O)O)sc2c1CCCCC2 (centres undefined)	14	-4.9	22	0	-1.3%	11%	-16
41	CC1(C)CC(=O)c2c(n(-c3cccc4ccccc34)ccc2=O)C1	6	-2.4	4	3	1.7%	24%	1
42	CC(NC(=O)C1CCC(CNS(=O)(=O)c2ccc3c(c2)C(C)(C)C(=O)N3C)CC1)c1ccccc1 (centres undefined)	15	-1.2	4	1	0.8%	20%	3
43	O=S(=O)(c1ccc(NC(=S)NN=C(C2CC2)C2CC2)cc1)N1CCOCC1	5	-7.1	.	-4	-1.3%	45µM*	-15
44	Cc1ccccc1CNC(=O)C(=O)NCC1OCCCN1S(=O)(=O)c1ccc(F)cc1C (centres undefined)	0	-2.6	2	-4	0.5%	12%	0
45	Cc1sc2ncnc(-n3cnc4ccccc43)c2c1C	-40	-0.7	1	3	16%[38.3 µM]	10%	0
46	CCCOC(=O)c1ccc(Oc2c(-c3ccc(OC)cc3O)n[nH]c2C)cc1	-6	3.9	0	-1	11%	11%	-9
47	O=C1CC(Cc2ccccc2)C(=O)N1c1ccc(Cl)cn1 (centres undefined)	6	-5.6	3	2	-0.2%	11%	-9
48	COc1cc(OC)cc(C(=O)NNC(=O)c2ccccc2Br)c1	0	0.6	2	-3	0.0%	22%	0
49	COc1ccc2[nH]c3c(c2c1)CCN1C(=O)N([C@@H](C)C(=O)NC2CCCCC2C)C(=O)[C@]31C (some centres undefined)	0	1.8	-3	-8	0.1%	5%	-1
50	Cc1ccc(S(=O)(=O)NNC(=O)c2ccc(NC(=O)C3CC3)cc2)cc1	9	-1.6	4	1	0.1%	1%	-7

(next part)
entry	Structure	TRPV1 potentiator	D2 agonist	CtBP-E1A inh	Six1-Eya2 inh	PINK1 expr mod	Sfp PPTase inh	D2 PAM
51	COc1ccc(CCNc2ccc(N3C(=O)CC(C)C3=O)cc2[N+](=O)[O-])cc1 (centres undefined)	-1	?	-17	8	1.6%	15%	-14
52	CCOC(=O)N(C)c1c(CC)nc2c(OCc3ccc(C(F)(F)F)cc3)cccn12	.	4.8	4	4	4.1%	.	-2
53	O=C(NCc1cccnc1)C1CC(c2ccccc2O)=NO1 (centres undefined)	-3	-3.7	-18	-6	2.5%	-29%	-9
54	CC1CCc2nn(CC(=O)NCCCN3CCOCC3)cc2C1 (centres undefined)	?	0.1	3	6	2.0%	12%	-1
55	COc1ccccc1C(CNC(=O)c1cccc(S(=O)(=O)NCc2ccccc2)c1)N(C)C (centres undefined)	6	-0.8	3	4	-2.6%	.	-21
56	COc1cc2c(cc1OC)CN(C(=O)c1oc3ccccc3c1C)CC2	-11	7.6	-8	-1	2.2%	4%	7
57	CCCCCCOc1ccc(N2C(=O)CC(N(CCc3ccc(S(N)(=O)=O)cc3)C(C)=O)C2=O)cc1 (centres undefined)	-1	-0.1	5	-1	0.0%	17%	1
58	Nc1cc(Cl)nc(N/N=C/c2ccc([N+](=O)[O-])cc2)n1	-5	2.8	-3	-4	17%	5%	0
59	O=C(CN1CCCC1)Nc1c2c(nc3ccccc13)N(Cc1ccccc1)CC2	5	-3.2	-2	-1	4.8%[38.3 µM]	14µM*	-16
60	NC(=O)NC(Cc1ccccc1)C(=O)NNC(=O)COc1ccccc1Cl (centres undefined)	.	1.2	3	1	-0.6%	.	-5
61	CCCc1ccc2oc(C(=O)N(C)Cc3ccn[nH]3)c(C)c2c1	-15	-4.3	2	0	3.2%	8%	-9
62	CCc1ccc(NC(=S)N(CCCN2CCN(C)CC2)Cc2cccs2)cc1	-8	-2.2	7	-5	-1.6%	4%	-19
63	CCOC(=O)c1ccc2[nH]c3c(c2c1)CN(C)CC3	-5	-3.6	-15	-2	2.9%	16%	-10
64	CCOCCOc1cccc(C(=O)NC(c2ccccc2)c2ccccc2)c1	-9	6.4	.	15	8.0%	11%	-19
65	Cc1cc(/C=C(\C#N)C(=O)NCc2ccccc2)c(C)[nH]1	.	-2.7	-3	-8	3.7%	.	-28
66	Cc1cc(NC(=O)c2ccc(N3C(=O)C4C5C=CC(C5)C4C3=O)cc2)no1 (centres undefined)	7	-1.4	3	0	3.9%	15%	-3

High-throughput results as filed in PubChem.
